UCH37 DUB inh: inhibitors of human UCH37 deubiquitinase, primary screen, biochemical, Ub-AMC cleavage, fluorescence. 330,000 tested, 0.33% active. inhibition, % (test concentration not listed). purified proteasome/UCH37;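 active means mean of two replicates above 20%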;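 further: 0% = compound-free wells with enzyme and 100% = wells lacking proteasome; stock transfer was 100 nL into about 20 µL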
Target sequence (Q9Y5K5 whole entry, looked up): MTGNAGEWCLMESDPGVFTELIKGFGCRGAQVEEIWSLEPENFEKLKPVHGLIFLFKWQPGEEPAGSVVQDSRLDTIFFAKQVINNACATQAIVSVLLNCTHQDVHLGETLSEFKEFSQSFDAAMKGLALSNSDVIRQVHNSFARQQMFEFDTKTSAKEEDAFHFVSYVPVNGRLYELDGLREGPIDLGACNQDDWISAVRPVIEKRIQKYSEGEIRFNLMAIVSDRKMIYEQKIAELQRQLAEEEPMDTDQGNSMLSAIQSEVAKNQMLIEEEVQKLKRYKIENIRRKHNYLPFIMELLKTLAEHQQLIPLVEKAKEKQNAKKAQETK
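Schedule: 30 min plus 25 min, room temperature / Material: human UCH37 within purified proteasomes / Technique: AMC fluorescence intensity at 355/460 nm / Buffer or medium: pH 7.4 Tris-HCl (50 mM) with ovalbumin, ATP-MgCl2, DTT / Controls: wells without proteasome as full block, compound-free enzyme plus substrate as uninhibited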
Ecoli growth: E. coli growth inhibition, primary screen, OD600. Escherichia coli growth, 23 h; stronger effect = lower value. OD600 absorbance (concentration not given with the values). 330,000 tested, 0.21% active;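 active means OD600 absorbance below the run mean of sample wells minus 3.6 SD, in any replicate, cut at about 0.56 in these data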;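 further: stock transfer was 300 nL into about 60 µL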
HNF4A DNA FP: change in binding of human HNF4A to DNA, primary screen, biochemical, fluorescence polarization, FITC-DNA | Hepatocyte nuclear factor 4-alpha (Homo sapiens), P41235 | 1 h | activity change, % at 10 µM | 360,000 tested, 0.3% active | AID 1224865, 2016; in the data active means activity change above about 30%, passing the limit was not always enough;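 further: controls were the assay level and a saturating level of protein; the project sought stronger binding though the title names inhibitors; some compounds called inactive have numbers as strong as hits; positive values seem to mean higher polarization but the record does not say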
Target sequence (P41235 whole entry, looked up): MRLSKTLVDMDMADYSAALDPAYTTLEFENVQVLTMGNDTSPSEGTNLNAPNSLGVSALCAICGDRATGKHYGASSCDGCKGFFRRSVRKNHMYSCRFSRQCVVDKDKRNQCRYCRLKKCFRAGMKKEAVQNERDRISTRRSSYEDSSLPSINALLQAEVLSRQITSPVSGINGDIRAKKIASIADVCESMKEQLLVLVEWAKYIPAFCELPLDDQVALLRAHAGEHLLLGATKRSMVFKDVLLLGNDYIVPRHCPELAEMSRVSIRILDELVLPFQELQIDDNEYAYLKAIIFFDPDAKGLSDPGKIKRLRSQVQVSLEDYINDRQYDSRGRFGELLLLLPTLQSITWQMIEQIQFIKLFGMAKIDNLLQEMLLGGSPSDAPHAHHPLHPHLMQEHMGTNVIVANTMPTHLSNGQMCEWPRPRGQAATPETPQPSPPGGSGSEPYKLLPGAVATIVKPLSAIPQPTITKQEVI
ALR inh: inhibitors of human ALR sulfhydryl oxidase, primary screen, biochemical, H2O2 detection, HRP-luminol luminescence, single point. purified ALR, DTT oxidation. inhibition, % (no concentration beside the values). 290,000 tested, 3.8% active. AID 485317, 2010;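 active means mean and each replicate at 75% or more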;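 further: stock transfer was 7.5 nL into about 7.5 µL; 0% = neutral wells and 100% = wells with inactivated enzyme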
Target sequence (P55789 whole entry, looked up): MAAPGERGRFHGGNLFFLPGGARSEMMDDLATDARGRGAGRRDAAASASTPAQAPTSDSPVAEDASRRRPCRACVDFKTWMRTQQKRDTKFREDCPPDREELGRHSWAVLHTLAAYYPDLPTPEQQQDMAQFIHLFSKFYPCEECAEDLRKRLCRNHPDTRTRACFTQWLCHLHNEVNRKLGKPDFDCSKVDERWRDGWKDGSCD
FGF22 binding: binders of human FGF22 protein, primary screen, FGF22 synaptogenesis inhibitor project, biophysical, thermal shift, single point | recombinant FGF22 thermal shift, SYPRO orange fluorescence; percent of sucrose octasulfate shift, DMSO zero | calls only at 9.99 µM | 340,000 tested, 1.5% active | AID 651658, 2012;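 active means melting point raised past a set limit in the mean and every replicate; three in four hits are not shown here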
Ecoli rRNA inh: reduced GFP signal of wild-type E. coli, primary screen, bacterial rRNA inhibitor project, GFP/RFP fluorescence, OD600, single point; E. coli WT GFP vs humanized-ribosome RFP mutants, 24 h; stronger effect = lower value; DMSO median 0, no signal -100; GFP signal change (wild-type ribosome), % (no concentration beside the values); 350,000 tested, 1.6% active; AID 720706, 2013;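 active means significant combined selectivity score with lowered wild-type GFP, culture density cut under 30%, mutant RFP and density less affected; inactive means any of these conditions unmet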; further: one replicate is shown; some compounds called inactive have numbers as strong as hits
Beta2AR agonist: beta2AR agonists driving receptor internalization, primary screen, cell-based, FAP fluorogen, flow cytometry; Beta-2 adrenergic receptor (Homo sapiens), P07550; Am2.2-beta2AR cells; reference of the scale not given here; response, % (test concentration not listed); 340,000 tested, 0.43% active; AID 504454, 2011;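 active means response above a set limit, near 3 SD of response in nonfluorescent compounds, cut at about 42% in these data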;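 further: stock transfer was 100 nL into about 11 µL; a reference agonist was the positive control; negative values mostly stem from fluorescent compounds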
Ecoli rRNA inh OD600: second read-out of Ecoli rRNA inh, no call of its own (marks repeat the call); OD600 change, %; measured here: OD600 growth;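 optical density of the mix in the first replicate; 0 = DMSO median and -100 = no signal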
Ecoli rRNA inh RFP: further read-out of Ecoli rRNA inh, marked with its call; RFP signal change, %; measured here: RFP humanized mutant strains;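 first replicate; 0 = DMSO median and -100 = no signal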
* hit, by the source's call; i = inactive; · = no result given; + = active, no number. These rows are one share of the data; rates above refer to the full screens.

SMILES	UCH37 DUB inh	Ecoli growth	HNF4A DNA FP	ALR inh	FGF22 binding	Ecoli rRNA inh	Ecoli rRNA inh OD600	Ecoli rRNA inh RFP	Beta2AR agonist
CC(=O)N1CCN(C(=S)NC(=O)c2ccc(S(=O)(=O)N3CCOCC3)cc2)CC1	4.4	0.68	2.9	11.0	·	·	·	·	3.8
Cc1ccc2c(c1)[C@@H]1CN(C)CC[C@@H]1N2S(=O)(=O)c1ccc(F)cc1	-3.0	·	-0.9	-31.3	·	·	·	·	5.0
Cc1ccc(S(=O)(=O)Oc2ccccc2/C=N/N=C(N)N)cc1	·	·	2.9	-12.3	i	-8.9	-6.8	-0.9	2.3
CCc1nnc(NC(=O)CSc2nc(-c3ccc(OC)cc3)ns2)s1	0.7	0.734	0.9	-26.1	·	·	·	·	10.1
COCCN1CC(C(=O)NCc2ncccc2C)CCC1=O (stereo not drawn)	1.7	0.707	0.1	-1.1	i	18.8	22.2	3.9	-0.3
O=C(Nc1ccc(F)cc1)c1nc[nH]c1C(=O)Nc1ccc([N+](=O)[O-])cc1	7.7	0.699	6.3	-7.6	·	9.7	7.7	1.9	-7.7
COc1cc(OC)cc(C(=O)N[C@H](C(=O)Nc2nc3ccc(S(C)(=O)=O)cc3s2)C(C)C)c1	-0.7	0.633	-0.3	-29.3	i	-0.3	2.8	3.8	2.2
CSCC(CO)NS(=O)(=O)c1ccc(C)cc1 (stereo not drawn)	0.8	0.648	3.8	0.1	i	7.3	2.8	-2.3	-1.4
COc1ccc2c(c1)C1=C(CC2)C(c2ccc(C)cc2)NC(=S)N1 (stereo not drawn)	-2.0	0.67	1.4	-22.8	i	-27.6	-31.3	-5.4	-20.8
O=C(O)c1ccc(-c2ccccc2)[nH]1	3.1	0.658	-1.0	13.9	·	-5.2	1.1	5.6	12.3
N/C(=N\OC(=O)Nc1ccc(Cl)cc1)c1ncc(C(F)(F)F)cc1Cl	3.3	·	-2.0	-4.3	·	·	·	·	-4.5
CC(=O)NCCNS(=O)(=O)c1ccc(C)c([N+](=O)[O-])c1	1.7	0.694	1.1	-9.2	i	11.8	6.2	-3.8	2.3
O=C(C[n+]1cccc(NC(=O)c2ccccc2)c1)c1ccccc1	2.8	0.716	0.6	44.4	·	·	·	·	-10.5
O=Nc1c2ccc[nH]c-2c2ccc([N+](=O)[O-])cc12	0.0	0.674	0.3	·	i	6.9	11.4	0.7	-1.5
O=C(Oc1ccc(N(Cc2cccs2)C2=NS(=O)(=O)c3ccccc32)cc1)c1ccccc1	-2.1	0.735	-2.0	-0.6	·	·	·	·	7.8
O=C(NCc1nnnn1-c1ccc(F)cc1)C(=O)c1c[nH]c2ccccc12	·	·	1.1	·	i	-8.9	-1.6	6.1	·
Cc1cccc(NC(=O)c2nc[nH]c2C(=O)N[C@@H](C)C(=O)OCc2ccccc2)c1	5.9	·	2.4	-7.1	i	4.2	-5.3	-8.8	-5.2
Fc1ccc(OCCCCCCN2CCCC2)cc1	4.7	0.667	0.5	-13.4	i	2.3	-3.3	6.1	0.1
COc1ccc(C(=O)CSc2nnc(CNC(=O)c3ccc(S(=O)(=O)N(C)C)cc3)o2)cc1	0.9	0.684	4.9	98.0*	i	0.4	3.0	2.8	-7.6
O=C1NC[C@H](CCCCN2C[C@H](Cc3ccc(O)cc3)N(CCc3ccc(O)cc3)C(=O)C2=O)N(CCc2ccc(O)cc2)C1=O	·	·	3.6	·	i	22.0	8.0	6.4	·
O=C(c1ccco1)N1CCN(Cc2nc3cc(Cl)ccc3c(=O)[nH]2)CC1	0.1	0.694	1.9	-3.1	i	13.1	3.3	2.9	-13.7
C#CCOCCOCCOCCNc1nc(N2CCOCC2)nc(N2CCN(C(=O)CCCCCCCCCCNC(=O)[C@@H](CCC(=O)O)n3cc(CCCCCN)nn3)CC2)n1	0.5	·	6.2	-56.0	i	2.0	2.0	6.0	-1.6
O=C(Nc1ccc(Oc2cccnc2)nc1)c1ccc(C(F)(F)F)cc1	6.6	0.674	-3.7	-4.5	i	-3.9	1.0	-2.7	3.7
COc1ccc(NC(=O)Nc2ccc(F)cc2F)cc1	1.2	0.67	0.0	0.1	i	11.0	-2.6	-1.3	-1.4
COC(=O)c1sc(NC(=O)c2ccc(OC)cc2OC)nc1C	3.4	0.683	0.6	-6.5	·	·	·	·	-9.3
O=C(c1cccc(S(=O)(=O)Nc2ccc(Br)cc2)c1)N1CCC1	1.7	0.702	-3.6	0.0	i	0.7	-13.0	0.1	1.2
C/C(=N/NC(=O)Cn1nc2ccccc2n1)c1ccc(F)cc1	·	·	2.4	-2.6	·	·	·	·	-5.2
COC(=O)c1ccc([N+](=O)[O-])c(CS(=O)(=O)c2ccc(Cl)cc2)c1	3.7	0.682	-1.6	-7.1	i	6.5	-10.0	3.6	6.2
COc1cn(-c2ccccc2)nc1C(=O)OCC(=O)Nc1ccc(C)c(C)c1	-1.3	0.708	0.6	5.1	i	5.7	8.9	-1.7	-16.4
CCOCCCNC(=O)C1(O)c2cc(Br)ccc2NC(=O)N1c1ccc(C)c(C)c1 (stereo not drawn)	2.4	0.704	-1.4	-20.2	i	4.8	3.9	0.7	3.3

Molecules above with a Cl atom (3):
SMILES	UCH37 DUB inh	Ecoli growth	HNF4A DNA FP	ALR inh	FGF22 binding	Ecoli rRNA inh	Ecoli rRNA inh OD600	Ecoli rRNA inh RFP	Beta2AR agonist
N/C(=N\OC(=O)Nc1ccc(Cl)cc1)c1ncc(C(F)(F)F)cc1Cl	3.3	·	-2.0	-4.3	·	·	·	·	-4.5
O=C(c1ccco1)N1CCN(Cc2nc3cc(Cl)ccc3c(=O)[nH]2)CC1	0.1	0.694	1.9	-3.1	i	13.1	3.3	2.9	-13.7
COC(=O)c1ccc([N+](=O)[O-])c(CS(=O)(=O)c2ccc(Cl)cc2)c1	3.7	0.682	-1.6	-7.1	i	6.5	-10.0	3.6	6.2

Next structures
SMILES	UCH37 DUB inh	Ecoli growth	HNF4A DNA FP	ALR inh	FGF22 binding	Ecoli rRNA inh	Ecoli rRNA inh OD600	Ecoli rRNA inh RFP	Beta2AR agonist
COc1ccc(CCNC(=O)CCC(=O)N2CCOc3ccc(C)cc32)cc1OC	3.1	0.751	-3.0	-19.2	i	0.3	2.9	1.3	6.8
CC(Nc1ccc(Br)cc1)C(=O)Nc1cccc(S(=O)(=O)N2CCOCC2)c1 (stereo not drawn)	1.7	0.654	-3.1	·	i	3.0	-34.0	1.7	3.5
Cc1ccc(C(=O)OCC(=O)N2c3ccccc3NC(=O)C2(C)C)cc1S(=O)(=O)N1CCCCC1	4.5	0.684	-5.0	-15.9	i	-3.6	-10.2	2.5	0.5
Cc1ccc(S(=O)(=O)N2CCOCC2)cc1NC(=O)COC(=O)CNC(=O)c1ccc(Cl)cc1Cl	-0.5	0.688	-2.6	-4.4	i	·	·	·	-0.6
Cc1cc(C)n2nc(N)c(N=Nc3cccc(Cl)c3)c2n1	7.3	0.717	18.2	-5.2	i	1.5	16.8	-2.4	-6.9
Cc1cc(C)nc(NC(=NCCc2c[nH]c3ccccc23)NC(=O)Nc2ccccc2)n1	3.1	0.697	-1.9	20.6	·	·	·	·	3.9
CC(C)c1ccc2oc(-c3cc(N)ccc3O)nc2c1	4.0	0.707	1.1	93.0*	·	·	·	·	8.1
Cc1nc2c(n1O)CCC/C2=N\O	·	·	-1.3	3.9	·	·	·	·	2.8
CCOC(=O)C1=C(C)N(C)C(=O)NC1c1cc2c(cc1Br)OCO2 (stereo not drawn)	0.3	0.783	-0.9	0.1	·	·	·	·	-5.0
O=C(O)c1cccc(-c2csc(C(O)(c3ccccc3)C(F)(F)F)n2)c1 (stereo not drawn)	·	·	-0.4	·	i	-11.3	-35.9	-5.5	·
COc1ccc(OC)c(/C=C/C(=O)NC2=NCCS2)c1	-115.9	0.718	1.4	·	i	6.4	7.3	2.1	8.5
CN(C)C(CNC(=O)c1cccc(OC(F)F)c1)c1ccco1 (stereo not drawn)	-8.3	0.706	2.2	-4.2	·	·	·	·	1.5
COc1cc2ccccc2cc1C(=O)N/N=C/c1cccnc1	·	·	0.9	-6.1	i	-3.2	-0.2	0.0	-11.2
O=C1NC[C@H](Cc2ccc(O)cc2)N(C[C@@H]2CCCN2C[C@H](Cc2ccccc2)N2C[C@H](Cc3ccccc3)N(CC3CCCCC3)C(=O)C2=O)C1=O	·	·	0.7	·	i	6.7	4.1	8.6	·
COc1cccc(NC(=O)CN(C)C(=O)CCCc2nc3ccccc3c(=O)[nH]2)c1	-0.2	0.674	-1.6	0.8	i	-3.5	-1.1	-3.1	-1.6
CCOC(=O)c1ccc2c(c1)n(CC)c(/C=C/N(C)c1ccccc1)[n+]2CC	23.5*	0.682	0.8	1.2	i	-0.2	-10.1	-3.2	-9.0
N#Cc1nc(-c2ccc(OCc3ccccc3)cc2)oc1NCCN1CCOCC1	-15.8	0.759	·	-9.5	·	·	·	·	·
COc1ccc(NC(=O)Nc2c(C)noc2-c2ccccc2)cc1	4.4	0.628	-1.1	-1.3	i	8.8	7.3	2.8	-3.3
CC(OC(=O)c1cccs1)C(=O)NCc1ccc2c(c1)OCO2 (stereo not drawn)	5.4	0.676	-4.2	-6.7	·	·	·	·	-6.4
O=[N+]([O-])c1ccc2cn[nH]c2c1	2.4	0.679	-1.1	-22.4	i	-4.0	4.6	2.9	0.7
COc1ccc(C(C)=O)cc1COC(=O)c1c(C)nn(-c2ccccc2)c1C	4.9	0.684	1.8	0.6	i	-9.5	-8.3	-3.5	0.2
CC(C)COc1ccc(C(=O)Nc2cc(S(=O)(=O)N3CCOCC3)ccc2N2CCCC2)cc1	-8.9	0.694	-0.1	0.3	i	3.0	0.5	-3.1	2.1
O=S(=O)(Nc1ncnc2scc(-c3ccc(F)cc3)c12)c1cc(F)ccc1F	-3.4	0.704	8.5	·	+	-56.5	-78.0	-28.1	9.2
Cc1ccc(CN2Cc3cccc4c3[C@@H](CC2=O)[C@H](O)[C@H](O)C4)cc1	1.2	·	1.9	-0.7	i	-4.8	5.2	-3.5	-1.2
CCOC(=O)[C@@H]1[C@H]2COc3ccccc3[C@@H]2N2C(=O)N(c3ccc(Cl)cc3)C(=O)[C@@]12C	4.1	·	0.6	-11.0	i	-17.5	-16.2	-8.0	-10.8
COc1ccc(NC(=O)CN2CCN(c3ccc(C)cc3C)CC2)cc1	3.0	0.649	0.7	-19.0	i	-27.9	-43.0	-4.6	-5.6
N#Cc1c(NC(=O)CSc2n[nH]c(N)n2)oc(-c2ccccc2)c1-c1ccccc1	2.6	0.712	-0.1	79.2*	·	·	·	·	0.1
Cc1cc(C)c2c(CN3CCN(Cc4ccccc4)CC3)cc(=O)oc2c1C	6.2	0.624	1.4	·	i	-35.0	-42.0	-4.8	0.2
Cc1ccc(/C=N/NC(=O)CSc2nc3ccccc3s2)o1	·	·	4.5	0.3	i	-3.8	-3.1	-1.1	-3.6
O=C(NNC(=O)c1ccco1)c1cccc([N+](=O)[O-])c1	5.1	0.725	0.7	-3.2	·	·	·	·	-0.6
